# Source: PubChem BioAssay
# HSV replic up = increases HSV replication in cells; HSV replication augmentation in cells, fold increase; maximum fold increase; 0.005% of 220,000 active; AID 1956;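 active = peak rise of 1.5-fold or more in the series; tested in PC3 cells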;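 note: first round at 10 µM; read as green reporter fluorescence; hits show the peak of a series up to 25 µM; 1 = signal of infected wells without compound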
# HSV replic up primary fold = further read-out of HSV replic up, marked with its call; fold increase; compound at 10 µM; measured here: primary screen fold increase 10 uM; tested in PC3 cells;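 GFP signal in the first replicate; 1 = infected wells without compound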
# * hit, by the source's call; i = inactive.
SMILES,HSV replic up,HSV replic up primary fold
O=C(C1=C[C@@H](c2ccc(C(F)(F)F)cc2)C[C@@H](OCCCCO)O1)N1CCCCCCC1,i,0.9
COCCNC(=O)c1c(CSc2ccc(Cl)cc2)noc1C(=O)NCc1ccccc1,i,0.92
CCCCN1CC[C@H]2C=CC[C@@H](C(=O)Nc3ccc(Cl)c(C(F)(F)F)c3)[C@H]2C1=O,i,1
COc1ccc(-c2ccc3oc(-c4ccc(OC)cc4)c(C#CC4(O)CCCCC4)c3c2)cc1,i,0.89
CCOC(=O)c1cccc(NC(=O)c2c(NCc3ccccc3)[nH]c(=O)[nH]c2=O)c1,i,0.95
Cc1csc(N2CCCC2c2nc3cc(Cl)c(N4CCCCC4)cc3n2CCCO)n1 (stereo not drawn),i,0.89
COC(=O)[C@@H]1[C@H](CCc2ccccc2)NC(=O)N(Cc2ccccc2)[C@@H]1C,i,0.82
C=C1CCN([C@@H](CC(C)C)C(=O)NCCCc2ccccc2)S(=O)(=O)c2ccccc21,i,0.83
COc1ccc(-c2ccc3oc(-c4ccsc4)cc3c2)cc1,i,0.71
CCC(=O)c1cn([C@@H](CCC(OC)OC)CC(=O)OC(C)(C)C)cc1CC,i,0.8
CC(C)[C@H](N)C(=O)OCCOCn1cnc2c(=O)[nH]c(N)nc21,i,0.63
CCCCN1C(N)=NC[C@@H]1c1ccccc1,i,0.77
S=C1NCCC12C(=S)Nc1ccccc12 (stereo not drawn),i,0.95
COc1cccc(-n2nnc3c(=O)n(Cc4cccc(C)c4)cnc32)c1,i,0.98
CCOc1cc(N)c(Cl)cc1C(=O)NCC1CN(Cc2ccc(F)cc2)CCO1 (stereo not drawn),i,0.72
OCCCn1c(C2CCCN2c2nc(-c3ccc(Cl)cc3)cs2)nc2cc(Cl)c(N3CCCCC3)cc21 (stereo not drawn),i,0.92
CCCCCCNC(=O)n1cc(F)c(=O)[nH]c1=O,i,0.9
O=C(c1ccccc1)N1CCC(=O)N(C(CO)Cc2ccccc2)CC1 (stereo not drawn),i,0.9
CCCC/C=C/[C@H](c1ccccc1)[C@H](CO)Cc1cccnc1,i,1.1
CC(=O)N1CCN(c2ccc(Nc3nc(C)nc4c3oc3ccccc34)cc2)CC1,i,1
CCN1CCCC1CNC(=O)c1cc(S(N)(=O)=O)ccc1OC (stereo not drawn),i,0.74
CC1=CC(c2ccccc2)n2nc(N)nc2N1 (stereo not drawn),i,0.92
COc1ccc(-c2c(C3=CCCCC3)oc3ccc(-c4ccc5c(c4)OCO5)cc23)cn1,i,0.81
C=CC[C@]12C[C@@H](OC)C(=O)C=C1O[C@@H](c1ccc(OC)c(OC)c1)[C@H]2C,i,1.1
COC(=O)C[C@H]1c2cc(F)ccc2S(=O)(=O)N1c1ccccc1,i,0.84
N#Cc1c(Cc2cccc3ccccc23)nn(CCO)c1N,i,0.87
O=c1[nH]c2ccccc2cc1-c1nnn(-c2ccccc2)n1,i,1
CNS(=O)(=O)Cc1ccc2[nH]cc(CCN(C)C)c2c1,i,0.96
CN1CCCC1c1cccnc1 (stereo not drawn),i,0.76
Cc1cc(C)cc(SCc2noc(C(=O)NCCN(C)C)c2C(=O)NCCN(C)C)c1,i,0.62
CCOC(=O)C1=C(C)N(CCC(=O)O)C(=O)NC1c1ccccc1Cl (stereo not drawn),i,0.85
COc1ccc(-c2ccc3oc(-c4ccc(OC)cc4)c(-c4cc(OC)c(OC)c(OC)c4)c3c2)cc1,i,1
C=CCOC(=O)C1=C(C)NC(C)=C(C(=O)OCC=C)C1c1ccc(O)cc1,i,1.1
C=CCN(C/C(=N\O)c1sc(C(=O)OCC)nc1C)c1cccc(Br)c1,i,0.83
O=C(NCC1CC1)C1(C(F)(F)F)CC(CCCO)CCCO1 (stereo not drawn),i,1
CC(C)CC(CO)N1CCN(C(=O)c2cccc(Cl)c2)CCC1=O (stereo not drawn),i,1
COC(=O)[C@@]1(Cc2ccc(OC)cc2)[C@H]2c3cc(C(=O)N4CCCC4)n(C[C@H](O)CO)c3C[C@H]2CN1C(=O)c1ccccc1,i,0.83
CSCCC(NC(=O)C1CCCCC1)c1nc2ccccc2[nH]1 (stereo not drawn),i,0.96
COc1ccc(NC(=O)[C@@H]2CC=C[C@@H]3CCN(C4CCCCC4)C(=O)[C@@H]32)cc1,i,0.95
N#Cc1sc(=O)[nH]c1Cl,i,0.97
Cc1c(O)cccc1C(=O)N[C@@H](CSc1ccccc1)[C@H](O)CN1C[C@H]2CCCC[C@H]2C[C@H]1C(=O)NC(C)(C)C,i,0.48
COC(=O)C[C@H]1c2cc(F)ccc2S(=O)(=O)N1Cc1ccccc1,i,0.89
COc1ccc(CN2[C@@H](CC(C)=O)c3cc(C(F)(F)F)ccc3S2(=O)=O)cc1,i,0.58
COc1cccc(C2NC(=O)N(CCCC(=O)O)C(C)=C2C(=O)OCc2ccccc2)c1 (stereo not drawn),i,0.8
Cc1ccc2c(c1)C1C=CCC1C(C(=O)NCCCN1CCOCC1)N2 (stereo not drawn),i,1.1
Fc1ccccc1N1CCN(C2CCN(Cc3c[nH]c4ccccc34)CC2)CC1,i,0.69
O=S(=O)(Nc1ncnc2c1oc1ccccc12)c1ccc(Cl)s1,i,0.87
CCOC(=O)CN1C(=O)N[C@@H](c2ccco2)C(C(C)=O)=C1C,i,0.89

# Single values from above:
# COC(=O)[C@@]1(Cc2ccc(OC)cc2)[C@H]2c3cc(C(=O)N4CCCC4)n(C[C@H](O)CO)c3C[C@H]2CN1C(=O)c1ccccc1 | HSV replic up primary fold: 0.83
# Cc1ccc2c(c1)C1C=CCC1C(C(=O)NCCCN1CCOCC1)N2 (stereo not drawn) | HSV replic up primary fold: 1.1

# Some of these compounds in order of their number in HSV replic up primary fold, rising:
SMILES | HSV replic up | HSV replic up primary fold
Cc1c(O)cccc1C(=O)N[C@@H](CSc1ccccc1)[C@H](O)CN1C[C@H]2CCCC[C@H]2C[C@H]1C(=O)NC(C)(C)C | i | 0.48
Fc1ccccc1N1CCN(C2CCN(Cc3c[nH]c4ccccc34)CC2)CC1 | i | 0.69
COc1cccc(C2NC(=O)N(CCCC(=O)O)C(C)=C2C(=O)OCc2ccccc2)c1 (stereo not drawn) | i | 0.8
COC(=O)C[C@H]1c2cc(F)ccc2S(=O)(=O)N1Cc1ccccc1 | i | 0.89

# Further records follow.
SMILES,HSV replic up,HSV replic up primary fold
CC(=O)NO,i,0.88
CCN1C(=O)N[C@@H](CCc2ccccc2)C(C(=O)OC)=C1C,i,0.87
COc1ccc(-c2noc3c2-c2nc(-c4ccccc4C)sc2CC3)cc1,i,0.69
COC(=O)C1=C(C(=O)OC)[C@@H]2N(Cc3ccccc3)c3ccccc3[C@@]23C[C@@H](C(=O)OC)N(C(=O)NC2CCCCC2)C3=N1,i,0.85
O=C(NCc1cccc(Br)c1)C1CC2Cn3c(nc4ccccc43)C2N1c1ccccc1 (stereo not drawn),i,0.88
C[C@@H]1CCC[C@@]2(O[C@H](CCO)C[C@H](O)[C@H]2O)O1,i,0.67
CN1C(=O)CC[C@H]1c1cccnc1,i,0.98
CSc1nnc2c3cc(F)ccc3n(Cc3ccccc3)c2n1,i,0.83
CCOC(=O)[C@@H]1[C@H]2COc3ccc(Br)cc3[C@@H]2N2C(=O)N(c3cccc(F)c3)C(=O)[C@]12C,i,0.71
CCCn1c(SCc2cc(=O)[nH]c3ccccc23)nc2c1c(=O)n(C)c(=O)n2C,i,1.1
COc1ccc([C@H]2/C=C\CN(S(=O)(=O)/C=C/c3ccccc3)[C@@H](C)C(=O)N2Cc2ccc(F)cc2)cc1,i,0.9
CC(C)Oc1ccc(Cl)cc1Nc1nc(NCCO)nc(N2CCCC2)n1,i,0.8
CCCCN1CC[C@H]2C=CC[C@@H](C(=O)Nc3nccs3)[C@H]2C1=O,i,0.97
c1ccc(OCc2nn3c(-c4n[nH]c5c4CCC5)nnc3s2)cc1,i,0.86
CN(C)c1ccc(-c2nn3c(-c4cccnc4)nnc3s2)cc1,i,0.92
O=C(c1ccc(Cl)cc1)N1CCC(=O)N(C(CO)Cc2ccccc2)CC1 (stereo not drawn),i,0.77
O=C(NCc1ccccc1)C1Nc2ccc(OC(F)(F)F)cc2C2C=CCC12 (stereo not drawn),i,0.91
CC1(c2nnc(Cc3ccccc3)o2)CC(c2ccc(Cl)cc2)=NO1 (stereo not drawn),i,0.91
Cn1c2c(c(=O)n(C)c1=O)C(c1ccc(C(F)(F)F)cc1)CC(=O)N2 (stereo not drawn),i,0.83
CC(=O)Oc1ccccc1C(=O)O,i,0.92
Cc1ccc(O)c(O)c1,i,0.71
CS(=O)(=O)c1ccc(CNC(=O)C2(C(F)(F)F)C/C(=C\Cc3ccccc3)CCCO2)cc1 (stereo not drawn),i,0.86
CCC[C@@H]1CCCO[C@@](C(=O)NCc2cc(C)n(C)n2)(C(F)(F)F)C1,i,0.88
COC(C/C=C\[C@@H](O)[C@@H](C)OCc1ccccc1)OC,i,1
CCCCOc1ccccc1NC(=O)CC1Nc2ccccc2NC1=O (stereo not drawn),i,1.1
O=C(Nc1ccc(Cl)cc1)c1ccc2c(c1)S(=O)(=O)c1ccccc1C2=O,i,0.7
CCOC(=O)C[C@H]1c2cc(F)ccc2S(=O)(=O)N1C1CCCCC1,i,0.91
CCOC(=O)/C=C/c1ccc2c(c1)S(=O)(=O)N(Cc1ccc(OC)cc1)[C@H]2CC(=O)OCC,i,0.77
CCOC(=O)[C@@H]1[C@H]2COc3ccc(Br)cc3[C@@H]2N2C(=O)N(c3cccc(Cl)c3)C(=O)[C@]12C,i,1.1
Fc1ccc(-n2nnc(-c3ncc[nH]3)n2)cc1,i,1.4
COC(=O)C1=C(C(=O)OC)[C@@H]2N(C)c3ccc(OC)cc3[C@@]23C[C@@H](C(=O)OC)N(C(=O)COCc2ccccc2)C3=N1,i,0.99
Cc1nc(-c2ccccc2)sc1C1(C)CC(c2ccccc2F)=NO1 (stereo not drawn),i,1.3
COc1ccc(Nc2nc(C)cc(-c3cc(-c4ccccc4)on3)n2)cc1,i,0.78
O=C1c2ccccc2C(=O)N1Cc1nn2c(-c3ccc(Cl)cc3)nnc2s1,i,1
CCOC(=O)CSc1nnc(C)c(C)n1,i,0.6
COC(C[C@@H](O)C[C@@H](O)[C@@H](C)OCc1ccccc1)OC,i,0.87

# Profiles from above. Screens in order: HSV replic up	HSV replic up primary fold
# Listed for O=C(Nc1ccc(Cl)cc1)c1ccc2c(c1)S(=O)(=O)c1ccccc1C2=O → i	0.7
# Listed for COc1ccc(Nc2nc(C)cc(-c3cc(-c4ccccc4)on3)n2)cc1 → i	0.78
# Listed for CCCCOc1ccccc1NC(=O)CC1Nc2ccccc2NC1=O (stereo not drawn) → i	1.1
# Listed for Cc1nc(-c2ccccc2)sc1C1(C)CC(c2ccccc2F)=NO1 (stereo not drawn) → i	1.3
# Listed for CCOC(=O)/C=C/c1ccc2c(c1)S(=O)(=O)N(Cc1ccc(OC)cc1)[C@H]2CC(=O)OCC → i	0.77

# (next part)
SMILES,HSV replic up,HSV replic up primary fold
Cc1nc(C(=O)O)sc1C1(C)CC(c2cccc([N+](=O)[O-])c2)=NO1 (stereo not drawn),i,0.77
CCc1cc(-c2ccc3c(c2)COc2c4ccccc4nn2-3)on1,i,0.8
O=C(NCc1ccc(F)cc1)c1cnc2sccn2c1=O,i,0.83
O=C(OCc1ccccc1)c1ccccc1,i,0.72
O=C(O)C1Nc2ccc(C(F)(F)F)cc2C2OCCC12 (stereo not drawn),i,0.93
O=C1C=C(c2cccc(O)c2)CCC1,i,0.75
COC(=O)C1=C[C@@H](C(=O)OC)[C@@H]2C3=C(C(=O)[C@@]2(C)NC(=O)c2ccccc2)[C@H](c2ccccc2)[C@@H]2C(=O)NC(=O)[C@@H]2[C@@H]3C1,i,0.73
COCCNC(=O)c1cc2c(=O)n3cccc(C)c3nc2n1C,i,0.84
O=C(N1CCN(Cc2ccc3c(c2)OCO3)CC1)C12CC3CC(CC(C3)C1)C2,i,0.8
C[C@@H]1CCC[C@]2(O[C@H](CCO)C[C@@H](O)[C@@H]2O)O1,i,0.99
CC1(C)c2[nH]c3ccccc3c2C[C@H]2C(=O)N(Cc3ccccc3F)C(=O)N21,i,0.81
Cc1cc2oc3cc(NCCC4CCCN4C)ccc3c(=O)c2cc1C (stereo not drawn),i,0.56
C[C@H](CCC(=O)O)[C@H]1CC[C@H]2[C@@H]3CC[C@@H]4C[C@H](O)CC[C@]4(C)[C@H]3C[C@H](O)[C@]12C,i,1.2
Cc1ccc2oc3c(c(=O)c2c1)C(c1cccc(Cl)c1)N(CCCN1CCOCC1)C3=O (stereo not drawn),i,0.71
COC(=O)c1ccc(C2=NOC(C)(c3nnc(-c4cccc(Cl)c4)o3)C2)cc1 (stereo not drawn),i,0.93
C=CCN1c2ccccc2[C@]23C[C@@H](C(=O)OC)N(C(=O)OCC)C2=NC(C(=O)OC)=C(C(=O)OC)[C@H]13,i,0.91
COC(=O)c1c(C)cc(O)cc1O,i,0.85
COc1ccc(S(=O)(=O)C(C#N)c2nc3ccccc3nc2N2CCC(C)CC2)cc1 (stereo not drawn),i,1.2
COc1ccc(C2=NOC(C)(c3nnc(Cc4ccccc4)o3)C2)cc1 (stereo not drawn),i,0.95

# Some of the compounds tested; count on the stated rates, not on these rows.
